Sfp inh – inhibitors of Bacillus subtilis Sfp phosphopantetheinyl transferase | Q9F4F7 | Biochemical Sfp PPTase activity, qHTS | Potency, µM, inactives show max response, negative = inhibition, actives largely listed as inhibitors | 3.5% of 310,000 active | AID 1490; active = well fitted inhibition curve with a large enough effect; inconclusive = small, poorly fitted or top-dose-only effect, or another doubt; inactive = no such curve, though single readings can be large or run the other way;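 also: the enzyme is Sfp with the accession as filed and its product quenches rhodamine fluorescence; potency is read from the fitted curve at half-maximal effect; 0% = enzyme reaction without inhibitor and -100% = no enzyme wells; top concentration of the series not given in the record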
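Sfp 15 nM + cpd, 15 min RT; start w/ rhodamine-CoA 5 uM, BHQ-2-YbbR 12.5 uM (final); 50 mM Hepes pH 7.6, 10 mM MgCl2, 0.01% NP-40, 0.01% BSA; read 525/598 nm at 0 and 30 min.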
TRPV1 PAM – enhances activation of the human vanilloid receptor TRPV1; Q8NER1; TRPV1-expressing cells, Fluo-8 calcium influx, capsaicin EC20 potentiation; host cell line not named in the record; control for the full effect not named in the record; potentiation, % at 8.33 µM; 0.02% of 320,000 active; AID 540277; active means potentiation above 80%; inconclusive means 30% to 80%; inactive means below 30%; also: 0% is about no effect
Target sequence (Q8NER1 whole entry, looked up): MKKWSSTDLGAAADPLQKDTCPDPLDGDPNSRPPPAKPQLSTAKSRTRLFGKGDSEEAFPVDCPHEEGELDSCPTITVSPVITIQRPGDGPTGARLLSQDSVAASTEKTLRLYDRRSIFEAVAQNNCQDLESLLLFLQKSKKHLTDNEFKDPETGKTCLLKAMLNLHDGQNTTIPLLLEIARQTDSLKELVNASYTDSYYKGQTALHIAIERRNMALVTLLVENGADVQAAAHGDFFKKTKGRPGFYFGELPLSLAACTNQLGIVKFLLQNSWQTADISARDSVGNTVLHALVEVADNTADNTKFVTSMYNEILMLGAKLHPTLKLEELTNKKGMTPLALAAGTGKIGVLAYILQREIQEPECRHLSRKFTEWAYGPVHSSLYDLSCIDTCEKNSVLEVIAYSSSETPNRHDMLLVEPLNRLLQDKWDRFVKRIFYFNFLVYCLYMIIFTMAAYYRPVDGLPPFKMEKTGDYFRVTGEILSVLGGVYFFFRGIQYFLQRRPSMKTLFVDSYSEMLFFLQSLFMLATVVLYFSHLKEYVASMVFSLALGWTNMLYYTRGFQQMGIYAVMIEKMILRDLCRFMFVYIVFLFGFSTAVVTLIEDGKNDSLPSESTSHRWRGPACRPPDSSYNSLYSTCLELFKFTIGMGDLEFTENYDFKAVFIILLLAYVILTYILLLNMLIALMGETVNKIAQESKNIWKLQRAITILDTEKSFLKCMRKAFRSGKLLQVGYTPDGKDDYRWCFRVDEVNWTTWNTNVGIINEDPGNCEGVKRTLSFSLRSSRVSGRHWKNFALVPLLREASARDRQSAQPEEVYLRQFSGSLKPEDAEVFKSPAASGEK
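Fluo-8 calcium influx in TRPV1-expressing cells, kinetic read (ex 480/em 520 nm). Compound added and read 3 min for agonist activity, followed by capsaicin at EC20 final and 2 min further read for enhancement.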
Menin MLL FP FL – menin-MLL binding inhibition, fluorescein peptide; Fluorescence polarization, fluorescein-MLL peptide displacement from menin; FP activity change, % at 61.4 µM; 290,000 tested, under 10 active; AID 1766; inconclusive = falling polarisation curve, or a change in total fluorescence; inactive = total fluorescence flat and polarisation flat or rising; no compound was filed as active; the % refers to the polarisation; negative = inhibition;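 also: % of control where 0% means no effect; inhibitors lower the polarisation; unlabelled MLL peptide was the positive control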
gsp antagonist – antagonists of gsp mutant (McCune-Albright syndrome); gsp-mutant cells, cAMP HTRF, 30 min; control for the full effect not named in the record; Potency, µM (series often up to 76.9 µM), for inactives: at the highest dose activity change, negative = inhibition, actives largely listed as inhibitors; 0.4% of 340,000 active; active = falling curve of any shape with a large fitted effect; inconclusive = falling curve, mostly with a smaller effect; inactive = flat or rising curve; cell line not stated here;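 also: intracellular cAMP measured with PDE inhibitor Ro 20-1724 present during compound exposure; potency is read from the fitted curve at half-maximal effect; % is scaled to controls: 0 for no effect and ±100 for the full control effect; nearly all actives have a fitted effect of over 65% in size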
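G418-selected cells were plated in DMEM/10% FBS for 16-24 h at 37C, then treated with compounds plus the PDE inhibitor […] (300 uM solution added) for 30 min at 37C. Intracellular cAMP was measured by HTRF after 30 min lysis at room temperature.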
ClpP mod – qHTS Assay for Activators of ClpP; ATP-dependent Clp protease proteolytic subunit (Bacillus subtilis (strain 168)), P80244; purified B. subtilis ClpP, FRET peptide cleavage, 20 min; Potency, µM (doses to about 57.5 µM), without a hit: top-dose activity change, negative = active; 1.9% of 340,000 active; AID 651965, 2013; active = well fitted falling curve with a large enough effect; inconclusive = small, poorly fitted or top-dose-only effect; inactive = no such curve, though single readings can be large or run the other way; also: potency is read from the fitted curve at half-maximal effect; the source files actives as falling curves though it sought activators and does not explain the sign; nearly all actives have a fitted effect of over 65% in size; many hits overshoot -100%
Target sequence (P80244 whole entry, looked up): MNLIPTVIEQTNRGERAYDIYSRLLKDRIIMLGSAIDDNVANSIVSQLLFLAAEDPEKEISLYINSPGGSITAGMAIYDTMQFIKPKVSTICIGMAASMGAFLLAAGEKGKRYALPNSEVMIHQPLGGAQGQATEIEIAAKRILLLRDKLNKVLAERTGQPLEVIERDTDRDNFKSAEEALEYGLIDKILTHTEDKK
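Buffer: 100 mM Tris/HCl pH8, 100 mM KCl, 0.05% low protease BSA, 2.5% glycerol, 0.01% Tween-20. ClpP 10 microg/mL final; 20 min RT; delta FRET normalized to ADEP and DMSO controls.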
D2 PAM – positive allosteric modulators of human D2 dopamine receptor. P14416. DiscoveRx D2 beta-arrestin cells, luminescence, 90 min; 100% = 57 uM dopamine signal. AID 624464. 0.23% of 360,000 active. potentiation, % (test concentration not listed); active = potentiation of 50% or more; inconclusive = 30% to 50%; inactive = 30% or less;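 also: compound concentration not given in the record; tested on top of an EC20 dose of dopamine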
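PathHunter D2 cells, attached overnight at 37 deg C, received compound in DMSO plus dopamine at EC20 (50 nM final) for 90 min at 37 deg C. Beta-arrestin recruitment was read as luminescence after 1 h with detection reagent at ambient temperature.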
gsp ag – agonists of gsp mutant (McCune-Albright syndrome); 0.13% of 340,000 active; Potency, µM (top dose mostly 76.9 µM), for the others: at the highest dose activation (cAMP increase), most hits filed as activators; gsp mutant cells, cAMP HTRF, 30 min; control for the full effect not named in the record; active = well fitted activation curve with a large enough effect; inconclusive = small, poorly fitted or top-dose-only effect, or another doubt; inactive = no such curve, though single readings can be large or run the other way; cell line not stated here;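 also: phosphodiesterase inhibitor Ro 20-1724 added with compounds to block cAMP breakdown; potency is read from the fitted curve at half-maximal effect; nearly all actives have a fitted effect of over 60% in size; about a fifth of the inactives were tested at one dose only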
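Cells in DMEM/10% FBS with G418 were pretreated with compounds in DMSO plus […] (300 uM stock) for 30 min at 37C. cAMP was measured by HTRF (cAMP-d2 plus anti-cAMP antibody-K) after 30 min at room temperature.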
The depositor's hits bear a star; ? = inconclusive; · = not tested or not shown; & = joins results of further samples; [ ] = remark or other dose.

SMILES	Sfp inh	TRPV1 PAM	Menin MLL FP FL	gsp antagonist	ClpP mod	D2 PAM	gsp ag
Cc1onc(-c2ccccc2Cl)c1C(=O)NCc1ccco1	-30%	2	?	1%	-1.1%	?	-14%
COCc1nnc(NC(=O)c2c(-c3c(Cl)cccc3Cl)noc2C)s1	-2%	6	-1.6	-13%	-0.9%	1	?
Cc1cc2cc(C#N)c(SCC(=O)Nc3nonc3C)nc2cc1C	-20%	14	·	-10%	·	-5	18%[15.4 µM]
CCN(CC)C(=O)COC(=O)c1ccc(C)c(NC(=O)c2ccco2)c1	?	1	0.3	4%	0.8%	-5	0%
OCCC1CN(Cc2cccn2-c2nccs2)CCN1C1CCCCC1 (stereo not given)	-2%	-12	-2.3	-5%	1.9%	-2	-10%
COc1ccc(S(=O)(=O)N(C)C)cc1NC(=O)CN1C(=O)NC2(CCCC2)C1=O	4%	-2	6.2	8%	·	-13	-16%
CCOC(=O)C1=C(C)N=c2s/c(=C\c3cccc(OCC(=O)O)c3)c(=O)n2C1c1ccccc1 (stereo not given)	-21%	-21	13	-14%	0.7%	-10	-5%[15.4 µM]
O=C(/C=C/c1ccc(F)cc1)N1CCCN(C(=O)/C=C/c2ccc(F)cc2)CC1	16%	-14	4.2	-5%	1.8%	-15	18%
Cc1ccc(NC(=O)CCN2C(=O)OC(C)(C)C2(C)O)cc1 (stereo not given)	19%	0	1.9	15%	0.7%	-5	-6%[15.4 µM]
Cc1cccc(C(=O)NC2CC3CCCC(C2)N3C(=O)NC2CCCCC2)c1 (stereo not given)	16%	3	4.3	2%	?	-4	-2%[15.4 µM]
Cc1scc(C(=O)Nc2ccon2)c1-c1ccccc1	9%	6	-0.3	-6%	-0.1%	-5	-1%
COc1ccc(NC(=O)c2ccc(Cl)c(S(=O)(=O)N3CC(C)OC(C)C3)c2)cn1 (stereo not given)	·	-13	·	12%	1.3%	-1	3%
COC(=O)c1ccc(Cl)c(S(=O)(=O)N2CCCC2)c1	-29%	10	1.6	11%	·	-5	-6%
CCN(CC)S(=O)(=O)c1ccc(N2CCOCC2)c(NC(=O)c2ccc(=O)n(C)n2)c1	·	3	·	19%	-2.9%	2	?
COc1ccc(NC(=O)/C=C/c2ccc(OC)c(OC)c2)cn1	8%	6	-2.1	-11%	-0.9%	-5	20%[15.4 µM]
Cc1ccc(S(=O)(=O)Nc2ccccc2CNc2ccccn2)cc1	25%	3	-5.2	-9%	2.4%	-1	?
CCCCN(CC)CCCNC(=O)c1cn(C)c(=O)c2c1c1ccccc1n2C	7%	-7	8.9	1%	3.7%&4.1%	-13	9%
Cc1ccc2c(NC(=O)C3CC3)cccc2n1	17%	20	0.1	9%	-3.4%	-15	26%
COC(=O)[C@H](C)NC(=O)Nc1cc(Cl)ccc1C	?	4	?	1%	-0.8%	-2	7%
CC1CCN(Cc2nc3c(c(=O)n(C)c(=O)n3C)n2CCc2ccccc2)CC1	·	·	·	-2%	-2.3%	-3	-13%
CC1(C)CC(=O)C2=C(C1)OC1=C(C(=O)CC(C)(C)C1)C2c1cccc([N+](=O)[O-])c1	·	·	·	·	1.9%	-10	12%
O=C(Nc1ccc(F)cc1)C1CC2CCC1C2 (stereo not given)	15%	-14	1.1	3%	-0.3%	-4	12%
CC(C)Oc1cccc(C(=O)C2CCCN(C(=O)c3ccnn3C)C2)c1 (stereo not given)	11%	-9	4.7	-6%	-2.1%	-7	0%
Cc1ccn2c(NC3CCCCC3)c(-c3cccc(-c4cccc(Cl)c4)c3)nc2c1	·	3	·	1%	3.9%	-13	·
C=CCNC(=O)c1onc(CSc2ccccc2F)c1C(=O)O	-21%	4	-1.9	5%	1.4%	2	·
COCCNC(=O)C(c1ccc(O)cc1)N(C(=O)CCC(=O)Nc1nccs1)c1ccc(C)cc1 (stereo not given)	9%	-8	-3.5	10%	·	-10	14%
COc1ccc(N(C(=O)Cn2nnc3ccccc32)C(C(=O)NCc2ccco2)c2ccncc2)cc1 (stereo not given)	16%	8	2.2	-7%	·	-4	-2%
CS(=O)(=O)N(CC(=O)NCc1ccc2c(c1)OCO2)Cc1ccccc1	-20%	-7	5.9	-5%	-4.8%	1	8%
O=C(NCC(=O)N1CCC(Cc2ccccc2)CC1)c1ccccc1F	·	·	·	·	-2.7%	-16	-36%[inhibitor]
O=C(NCCc1ccccc1F)N[C@@H](Cc1ccccc1)C(=O)O	9%	-3	-2.1	6%	-3.0%	3	-15%
Cc1ccc(CNC(=O)CNC(=O)c2ccco2)cc1	6%	6	-4.5	0%	-1.6%	1	1%[15.4 µM]
CCCOC1CCCN(C(=O)c2ccc(OC3CCN(Cc4ccccn4)CC3)cc2)C1 (stereo not given)	8%	8	-1.7	8%	0.5%	-19	-23%
COc1ccc(C(=O)NCCCSc2ccccc2)cc1F	3%	-2	0.8	-2%	·	-6	?
CSc1n[nH]c(=O)n1-c1cccc(Cl)c1	8%	-3	0.5	1%	2.0%	-4	2%[15.4 µM]
Cc1cccc(NC(=O)CCSc2nnc(Cc3ccccc3)o2)c1	-1%	-12	7.2	-1%	-0.1%	8	-18%
C/C(CC(=O)Nc1ccc(OCc2ccccc2)cc1)=N\NC(=O)C(=O)Nc1cccc(C)c1	2%	2	2.0	-11%	-6.1%	19	-2%
CC(=O)Nc1cccc(-c2nc3ccccc3s2)c1	-4%	-6	-1.0	-17%	·	-2	-85%[inhibitor]
O=Cc1cccn1-c1ccc(O)cc1	6%	-2	3.0	5%	·	-7	-9%[15.4 µM]
CCN(CC)CCOC(=O)/C=C/c1ccccc1	-9%	3	6.0	9%	-0.2%	-13	-1%
O=C(c1ccc([N+](=O)[O-])cc1Cl)N1CCN(Cc2ccccc2)CC1	·	·	·	·	-0.3%	-5	23%
Cc1nnc(SCC(=O)NNC(=O)COc2ccc(Br)cc2)n1C	·	-1	·	8%	0.5%	-1	?
COc1cc(O)oc1C=Nc1ccc(C(F)(F)F)cc1	-4%	-11	11	4%	-10%	-3	7%
COc1ccc(OC)c(NC(=O)C(CC(C)C)NC(=O)C2CCCCC2)c1 (stereo not given)	-10%	-17	4.2	13%	-1.5%	-1	-13%
COc1ccc2[nH]c(=O)c(CN(Cc3nnnn3Cc3ccco3)C3CCCCC3)cc2c1	8.9µM*	3	?	-10%	?	9	0%
Cc1cccc(C)c1NC(=O)CNC(=O)c1ccc(N2CCCC2)c([N+](=O)[O-])c1	·	0	·	-6%	-1.0%	-5	17%
Cc1ccc(CN(CC(=O)NCc2ccccn2)S(=O)(=O)c2ccccc2)cc1	-5%	-19	-0.6	0%	-4.3%	0	29%
COc1ccc(NC(=O)CSC2=NC(=O)CC(C)=N2)cc1	-8%	·	5.0	-5%	0.3%	-2	5%
COc1ccc(/C=N/NC(=O)c2ccncc2)cc1[N+](=O)[O-]	9%	2	-0.5	0%	-0.5%	-4	-16%
Cc1cc(NC(=O)Nc2ccc(Cl)c(Cl)c2)n(-c2ccccc2)n1	15%	-2	-0.2	-31%	2.3%	-11	-6%[15.4 µM]
CCOc1cc(CNS(=O)(=O)c2ccc3c(c2)CC(=O)N3C)cc(OCC)c1OCC	17%	-7	2.7	6%	0.4%&0.2%	-4	-97%[inhibitor]
CCC(CO)Oc1cc(NCc2cccc(C)c2)c2ncn(C(C)C)c2c1 (stereo not given)	·	·	·	-2%	-0.2%	-24	-2%
O=C(NC1CCC(NC(=O)C(F)(F)C(F)F)CC1)C(F)(F)C(F)F (stereo not given)	-8%	-3	-1.2	16%	-0.4%	3	-36%
COc1ccc(CNCC(O)(c2ccccc2)c2ccccc2)cc1	2%	3	-5.0	3%	-2.2%	-15	2%[15.4 µM]
O=CNc1c(Br)cc2c(c1Br)Cc1cc(Br)ccc1-2	·	·	·	1%	2.8%	-8	4%[15.4 µM]
COc1cc(NS(=O)(=O)c2ccc(NC(=O)CN3C(=O)c4ccccc4C3=O)cc2)ncn1	5%	3	0.0	-11%	1.0%	-5	?
COc1ccc(C(=O)N2CCCCC2C(=O)Nc2ccc(-n3nc(C)cc3C)cc2)o1 (stereo not given)	8%	?	3.0	10%	0.5%	-2	15%
O=C(C1CCN(S(=O)(=O)c2cccs2)CC1)N1CCCCCC1	-2%	-2	-1.5	-1%	0.6%	-12	-1%
CC(=O)N(CCc1cccc(C)c1)Cc1cc2cc(C)ccc2[nH]c1=O	-3%	-7	-6.4	-2%	?	-6	-27%
CCC(CC)NC(=O)COC(=O)c1cc(Br)ccc1Cl	5%	0	5.8	5%	1.2%	11	-1%
COc1ccccc1NS(=O)(=O)c1ccc(C(=O)NCC(c2ccc(F)cc2)N2CCOCC2)cc1 (stereo not given)	·	·	·	2%	-0.2%	-6	?
Other compounds:
SMILES	Sfp inh	TRPV1 PAM	Menin MLL FP FL	gsp antagonist	ClpP mod	D2 PAM	gsp ag
Cc1cccc(C)c1NC(=O)CSCCO	11%	2	4.9	3%	-0.3%	-1	?
CN1C(=O)/C(=C/c2ccc(C(F)(F)F)cc2)Sc2ccc(C(=O)N3CCN(c4ccccn4)CC3)cc21	-3%	17	·	1%	-6.2%	-8	-4%
CC1(OC(=O)C2CCCC2)C(=O)C=C2C=C(c3ccsc3)N(C3CCCCC3)C=C2C1=O (stereo not given)	-4%&-8%	-32	6.4[11.7 µM]	-3%	0.5%	-4	?
CC(C)Cn1c(N)c(C(=O)COC(=O)c2cnc(Cl)c(Cl)c2)c(=O)n(C)c1=O	11%	6	1.8	35µM*	0.8%	-20	-40%[inhibitor]
O=C(Nc1ccc2ccccc2c1)c1ccc(NS(=O)(=O)c2ccc(Br)s2)cc1	-5%	-18	2.8	?	-1.0%	10	-49%[inhibitor]

From PubChem
